Source: PubChem
Ecoli rRNA inh: inhibits bacterial ribosomal RNA function over humanized ribosomes | E. coli WT GFP vs humanized-ribosome RFP mutants, fluorescence, 24 h; active compounds read low; DMSO median 0, no signal -100 | GFP signal change (wild-type ribosome), % (test concentration not listed) | hit rate 1.6% among 350,000;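 active means significant combined selectivity score with lowered wild-type GFP, culture density cut under 30%, mutant RFP and density less affected; inactive means any of these conditions unmet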; further: one replicate is shown; some compounds called inactive have numbers as strong as hits
LANA-H2B inh: blocks KSHV LANA binding to histone H2A/H2B. AID 2629. inhibition, % (no concentration beside the values). hit rate 0.6% among 320,000. Q9QR71. cell-free LANA-H2A/H2B peptide, fluorescence polarization; in the data active means inhibition mostly above about 10%, no sharp cut-off; inactive means mostly below about 6.7%;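 further: stock transfer was 7.5 nL into about 10 µL; 0% = median of vehicle wells and 100% = median of positive control wells; one replicate is shown; the record names a cut of 25% in any replicate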
Calb FLC: C. albicans growth modulation with fluconazole | C. albicans CaCi-2 (fluconazole-resistant clinical isolate) + fluconazole, Alamar Blue growth, 48 h | growth inhibition, % (test concentration not listed) | hit rate 0.57% among 300,000 | AID 1979;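 active means most replicates above 75%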;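 further: all wells also contain fluconazole at 8 µg/ml as a sub-toxic cotreatment; 0% = median of DMSO wells and 100% = median of geldanamycin control wells; wells of about 8 µL received 7.5 nL stock; the first replicate is given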
Beta apoptosis: beta cell apoptosis inhibition | hit rate 0.8% among 300,000 | protection from apoptosis, % (test concentration not listed) | INS-1E cytokine-induced death, ATP luminescence, 48 h; percent of positive-control rescue, neutral wells zero;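 active means all replicates at 75% or more, or half of them and the mean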;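 further: 0% = cytokine-treated negative control wells and 100% = positive control rescue; higher means more ATP so stronger rescue from cytokine killing; wells of about 40 µL received 100 nL stock; the first replicate is given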
ALR H2O2 inh: blocks human ALR sulfhydryl oxidase activity | purified ALR, DTT oxidation, H2O2 HRP-luminol luminescence | hit rate 3.8% among 290,000 | AID 485317 | inhibition, % (test concentration not listed);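 active means mean and each replicate at 75% or more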;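 further: stock transfer was 7.5 nL into about 7.5 µL; 0% = neutral wells and 100% = wells with inactivated enzyme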
Target sequence (P55789 whole entry, looked up): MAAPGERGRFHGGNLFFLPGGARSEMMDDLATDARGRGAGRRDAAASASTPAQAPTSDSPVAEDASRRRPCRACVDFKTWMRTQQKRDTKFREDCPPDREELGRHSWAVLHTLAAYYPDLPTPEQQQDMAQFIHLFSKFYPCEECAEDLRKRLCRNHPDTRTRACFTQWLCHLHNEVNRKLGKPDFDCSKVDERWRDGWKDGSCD
T cruzi repl: blocks replication of Trypanosoma cruzi; T. cruzi beta-gal in NIH3T3, luminescence, 90 h; hit rate 1.4% among 300,000; inhibition, % (concentration not given with the values);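 active means mean inhibition across valid replicates above about 55%, limit read from the data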;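 further: signal also drops with host cell toxicity which is not excluded here; 0% = plate median of DMSO wells and 100% = zero luminescence signal; higher percent means less beta-gal luminescence so fewer parasites; stock transfer was 50 nL into about 50 µL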
Beta2AR agonist: agonists of human beta-2 adrenergic receptor inducing internalization | P07550 | Am2.2-beta2AR cells, FAP receptor internalization, flow cytometry; reference of the scale not given here | response, % (concentration not given with the values) | hit rate 0.43% among 340,000 | AID 504454;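 active means response above a set limit, near 3 SD of response in nonfluorescent compounds, cut at about 42% in these data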;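 further: stock transfer was 100 nL into about 11 µL; a reference agonist was the positive control; negative values mostly stem from fluorescent compounds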
Target sequence (P07550 whole entry, looked up): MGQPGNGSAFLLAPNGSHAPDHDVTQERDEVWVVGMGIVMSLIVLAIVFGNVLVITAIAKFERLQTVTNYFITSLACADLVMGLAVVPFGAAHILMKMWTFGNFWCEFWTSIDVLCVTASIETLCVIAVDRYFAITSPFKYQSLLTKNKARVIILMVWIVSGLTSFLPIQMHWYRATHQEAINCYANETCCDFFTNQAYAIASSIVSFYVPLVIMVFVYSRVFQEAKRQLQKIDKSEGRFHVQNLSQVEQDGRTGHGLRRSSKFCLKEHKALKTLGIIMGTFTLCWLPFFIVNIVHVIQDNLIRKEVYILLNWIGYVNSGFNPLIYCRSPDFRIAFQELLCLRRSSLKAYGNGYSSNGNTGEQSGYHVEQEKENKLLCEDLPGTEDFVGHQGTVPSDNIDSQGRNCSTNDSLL
Bfl-1 A1 inh: inhibitors of the anti-apoptotic protein A1, read as caspase activation; AID 2462; caspase activation, % (no concentration beside the values); MEF A1-2A-BIM cells, Caspase-Glo 3/7 luminescence, 3 h; percent of clofoctol response, vehicle zero; hit rate 0.066% among 330,000;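 active means over half of replicate activation scores above 10%, or exactly half above 10 with the replicate mean above 10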;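 further: wells of about 30 µL received 50 nL stock; many hits fall short of the cut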
Ecoli rRNA inh OD600: recorded beside Ecoli rRNA inh, whose call it bears; OD600 change, %; measured here: OD600 growth;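 optical density of the mix in the first replicate; 0 = DMSO median and -100 = no signal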
Ecoli rRNA inh RFP: recorded beside Ecoli rRNA inh, whose call it bears; RFP signal change, %; measured here: RFP humanized mutant strains;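 first replicate; 0 = DMSO median and -100 = no signal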
Numbers without * were called inactive. The list is partial; rates above refer to the full screens.

For CC(C)Cn1c(N)c(C(=O)COC(=O)c2ccncc2)c(=O)n(C)c1=O the results were LANA-H2B inh 0.0, Calb FLC -6, Beta apoptosis -6, ALR H2O2 inh 2, T cruzi repl -4, Beta2AR agonist -1 and Bfl-1 A1 inh 0.0.
Screening Cc1cccc(C)c1NC1=NC(C)(C)N=C(N)N1 returned LANA-H2B inh 7.9, Calb FLC 3, Beta apoptosis -14, ALR H2O2 inh 3, T cruzi repl -4, Beta2AR agonist 7 and Bfl-1 A1 inh -0.3.
`COc1ccc(S(=O)(=O)N2CCCCCC2)cc1C(=O)N(C)CC(=O)Nc1c(Cl)cccc1Cl` gave Ecoli rRNA inh 2, LANA-H2B inh -1.2, Calb FLC -2, Beta apoptosis 5, ALR H2O2 inh 2, T cruzi repl 10, Beta2AR agonist 4, Bfl-1 A1 inh 0.1, Ecoli rRNA inh OD600 8 and Ecoli rRNA inh RFP -1.4.
For Cc1c(-n2cc(C(=O)c3ccccc3O)cc(C#N)c2=O)c(=O)n(-c2ccccc2)n1C the results were LANA-H2B inh 0.3, Calb FLC 14, Beta apoptosis -5, ALR H2O2 inh 16, T cruzi repl -1, Beta2AR agonist 4 and Bfl-1 A1 inh -0.6.
Screening CN1C(=O)CSc2ccc(NC(=O)NCc3ccco3)cc21 returned LANA-H2B inh -3.3, Calb FLC 7, Beta apoptosis 5, ALR H2O2 inh -1, T cruzi repl 1, Beta2AR agonist 4 and Bfl-1 A1 inh 0.4.
O=C(O)CN1C(=O)NC2(CCCc3ccccc32)C1=O (stereo unspecified) was read as Ecoli rRNA inh 1, LANA-H2B inh -2.8, Calb FLC -1, Beta apoptosis -4, ALR H2O2 inh -3, T cruzi repl -8, Beta2AR agonist 0, Bfl-1 A1 inh -0.6, Ecoli rRNA inh OD600 11 and Ecoli rRNA inh RFP -1.1.
`Cc1cc(C)n(CC(=O)NCc2cc(-c3nn(C)c(=O)c4ccccc34)ccc2C)n1` gave LANA-H2B inh -0.3, Calb FLC 6, Beta apoptosis 2, ALR H2O2 inh -1, T cruzi repl -2, Beta2AR agonist -1 and Bfl-1 A1 inh 0.9.
For O=C(N/N=C/c1cc(Br)c(Br)o1)c1cc2ccccc2o1 the results were Ecoli rRNA inh -5, LANA-H2B inh -0.2, Calb FLC 64, Beta apoptosis 0, ALR H2O2 inh -7, T cruzi repl -1, Beta2AR agonist 10, Bfl-1 A1 inh -0.3, Ecoli rRNA inh OD600 11 and Ecoli rRNA inh RFP 12.
`Cc1csc(CN(C)C(=O)c2cn(Cc3cccc4ccccc34)nn2)n1` gave Ecoli rRNA inh -3, LANA-H2B inh 0.3, Calb FLC -11, Beta apoptosis -7, ALR H2O2 inh 7, T cruzi repl 6, Beta2AR agonist -6, Bfl-1 A1 inh 0.2, Ecoli rRNA inh OD600 -13 and Ecoli rRNA inh RFP 2.0.
For CC(C)Cc1nc(N2CCN(C(=O)c3ccco3)CC2)c(C#N)c2c1CCCC2 the results were Ecoli rRNA inh -19, LANA-H2B inh 1.2, Calb FLC 3, Beta apoptosis 7, ALR H2O2 inh 4, T cruzi repl 42, Beta2AR agonist -1, Bfl-1 A1 inh 0.6, Ecoli rRNA inh OD600 -28 and Ecoli rRNA inh RFP -4.7.
For OCCN(Cc1ccccc1)C(=S)NC1CCCCC1 the results were Ecoli rRNA inh -16, LANA-H2B inh -1.2, Calb FLC -27, Beta apoptosis -4, ALR H2O2 inh 0, T cruzi repl -1, Beta2AR agonist -2, Bfl-1 A1 inh 1.3, Ecoli rRNA inh OD600 -28 and Ecoli rRNA inh RFP -4.4.
For O=C(c1ccccc1)c1c[nH]c2cc3c(cc2c1=O)OCCO3 the results were LANA-H2B inh -0.3, Calb FLC -1, Beta apoptosis -6, ALR H2O2 inh -13, T cruzi repl -1, Beta2AR agonist -2 and Bfl-1 A1 inh 0.2.
`Cc1onc(-c2c(Cl)cccc2Cl)c1C(=O)N1CCc2ccccc2C1` gave LANA-H2B inh 3.0, Calb FLC -6, Beta apoptosis 2, ALR H2O2 inh 0, T cruzi repl 23, Beta2AR agonist -6 and Bfl-1 A1 inh 0.6.
COC(=O)c1ccc(COc2ccccc2/C=N/NS(=O)(=O)c2ccccc2)cc1 was read as Ecoli rRNA inh -13, LANA-H2B inh -1.3, Calb FLC 21, Beta apoptosis 2, ALR H2O2 inh -2, T cruzi repl -8, Beta2AR agonist 2, Bfl-1 A1 inh -0.4, Ecoli rRNA inh OD600 -6 and Ecoli rRNA inh RFP 3.4.
For CCOC(=O)c1[nH]c2cc(OC)c(OC)cc2c1NC(=O)CCN1CCSCC1 the results were LANA-H2B inh -2.2, Calb FLC 10, Beta apoptosis -7, T cruzi repl 23, Beta2AR agonist -4 and Bfl-1 A1 inh 0.1.
CCn1cc(CN2CCCC(C(=O)c3ccc(-c4ccccc4)c(F)c3)C2)cn1 (stereo unspecified) was read as Ecoli rRNA inh -13, LANA-H2B inh 1.3, Calb FLC -2, Beta apoptosis 6, T cruzi repl 55*, Beta2AR agonist 4, Bfl-1 A1 inh 1.3, Ecoli rRNA inh OD600 -10 and Ecoli rRNA inh RFP 2.3.
For Cc1ccc(NC(=O)c2ccc(NCc3ccc(F)cc3)nc2)cc1 the results were Ecoli rRNA inh 2, LANA-H2B inh -0.3, Calb FLC -9, Beta apoptosis 5, ALR H2O2 inh -8, T cruzi repl -12, Beta2AR agonist -2, Bfl-1 A1 inh -0.5, Ecoli rRNA inh OD600 12 and Ecoli rRNA inh RFP 1.3.
`COc1ccccc1CCC(=O)Nc1cccc(S(=O)(=O)N2CCOCC2)c1` gave Ecoli rRNA inh -6, LANA-H2B inh -11, Calb FLC 0, ALR H2O2 inh 2, T cruzi repl -13, Beta2AR agonist 0, Bfl-1 A1 inh 0.2, Ecoli rRNA inh OD600 -8 and Ecoli rRNA inh RFP 6.4.
CC(C)c1cc(N=NC(N)=O)cc(C(C)C)c1O was read as LANA-H2B inh -2.4, Calb FLC 5, Beta apoptosis -5, ALR H2O2 inh 5, T cruzi repl -8, Beta2AR agonist -1 and Bfl-1 A1 inh 0.6.
`Cc1cc(Br)ccc1NC(=O)CSCc1c(C)noc1C` gave Ecoli rRNA inh -2, LANA-H2B inh 2.7, Beta apoptosis 1, ALR H2O2 inh 25, Beta2AR agonist -3, Bfl-1 A1 inh 0.3, Ecoli rRNA inh OD600 -28 and Ecoli rRNA inh RFP 0.8.
`C=CCOc1ccc(/C=N/n2nnnc2N)cc1OC` gave Ecoli rRNA inh -4, LANA-H2B inh -0.1, Calb FLC 9, Beta apoptosis 0, ALR H2O2 inh -6, T cruzi repl -1, Beta2AR agonist 3, Bfl-1 A1 inh 0.2, Ecoli rRNA inh OD600 -6 and Ecoli rRNA inh RFP 3.7.
For CCOC(=O)C1CCN(c2ccc(C(N)=O)cc2[N+](=O)[O-])CC1 the results were LANA-H2B inh 2.1, Calb FLC 2, ALR H2O2 inh 0, T cruzi repl -13, Beta2AR agonist -7 and Bfl-1 A1 inh -0.6.
`CN(C(=O)c1cc(C(=O)N(C)c2ccccc2)cc([N+](=O)[O-])c1)c1ccccc1` gave Ecoli rRNA inh 4, LANA-H2B inh -1.0, Calb FLC -2, Beta apoptosis -9, ALR H2O2 inh -17, T cruzi repl 15, Beta2AR agonist 10, Bfl-1 A1 inh 0.2, Ecoli rRNA inh OD600 2 and Ecoli rRNA inh RFP 2.5.
COc1cc(Cl)c(NS(=O)(=O)c2c(C(=O)N3CCCC3)c(C)n(C)c2C)c(OC)c1 was read as Ecoli rRNA inh 3, LANA-H2B inh 3.6, Calb FLC 3, Beta apoptosis 0, ALR H2O2 inh -8, T cruzi repl -12, Beta2AR agonist 1, Bfl-1 A1 inh 0.3, Ecoli rRNA inh OD600 7 and Ecoli rRNA inh RFP -3.2.
CN(Cc1ccccc1)Cc1nc2c(c(=O)n(C)c(=O)n2C)n1Cc1ccc(F)cc1 was read as LANA-H2B inh -0.6, Calb FLC -2, Beta apoptosis 8, ALR H2O2 inh -18, T cruzi repl 26, Beta2AR agonist -6 and Bfl-1 A1 inh -0.5.
For Cc1ccc2nc(-c3ccc(-c4ccccn4)s3)cn2c1 the results were Ecoli rRNA inh 3, LANA-H2B inh -0.3, Calb FLC 40, Beta apoptosis -12, ALR H2O2 inh -7, T cruzi repl 4, Beta2AR agonist 9, Bfl-1 A1 inh -1.8, Ecoli rRNA inh OD600 0 and Ecoli rRNA inh RFP 2.1.
Screening CCCCCCOc1ccc(C(CC(=O)O)C(N)=O)cc1 (stereo unspecified) returned LANA-H2B inh 5.8, Calb FLC 0, Beta apoptosis -4, ALR H2O2 inh -3, T cruzi repl 4, Beta2AR agonist -3 and Bfl-1 A1 inh 0.2.
COCCCN(C(=O)CCOc1ccccc1C)c1c(N)n(Cc2ccccc2)c(=O)[nH]c1=O was read as Ecoli rRNA inh 2, LANA-H2B inh -4.3, Calb FLC 7, Beta apoptosis 0, ALR H2O2 inh 2, T cruzi repl -4, Beta2AR agonist -12, Bfl-1 A1 inh 1.5, Ecoli rRNA inh OD600 0 and Ecoli rRNA inh RFP -0.8.
`COc1cccc(C(=O)N2CCN(c3ncccn3)CC2)c1` gave LANA-H2B inh 1.7, Calb FLC 13, Beta apoptosis -10, T cruzi repl 7, Beta2AR agonist -1 and Bfl-1 A1 inh 0.3.
For N=c1n(CCCOc2ccc(Br)cc2)c2ccccc2n1CC(N)=O the results were Ecoli rRNA inh -1, LANA-H2B inh -3.7, Calb FLC 2, Beta apoptosis -1, ALR H2O2 inh -6, T cruzi repl -2, Beta2AR agonist 6, Bfl-1 A1 inh 0.4, Ecoli rRNA inh OD600 -12 and Ecoli rRNA inh RFP 4.9.
Screening O=C(Nc1ccccc1)C1=C[C@@H](c2ccc(Br)cc2)C[C@@H](OCCCCO)O1 returned Ecoli rRNA inh 2, LANA-H2B inh 1.5, Calb FLC -1, Beta apoptosis 0, ALR H2O2 inh 9, T cruzi repl 27, Beta2AR agonist -5, Bfl-1 A1 inh -0.4, Ecoli rRNA inh OD600 -3 and Ecoli rRNA inh RFP 0.2.
For CCCCCc1ccc(CC(=O)N2CCOCC2)cc1 the results were Ecoli rRNA inh 5, LANA-H2B inh -0.6, Calb FLC -33, ALR H2O2 inh -6, T cruzi repl -1, Beta2AR agonist -6, Bfl-1 A1 inh 1.1, Ecoli rRNA inh OD600 -2 and Ecoli rRNA inh RFP -0.9.
Screening CC(=O)Nc1cccc(C(=O)OCc2ccc(C(=O)Oc3ccc(Cl)cc3)cc2)c1 returned LANA-H2B inh 1.4, Calb FLC -4, Beta apoptosis -9, ALR H2O2 inh -9, T cruzi repl 0, Beta2AR agonist -7 and Bfl-1 A1 inh -3.3.
Cc1ccc(NC(=O)CSc2nnc(-c3cccnc3)n2-c2ccc(C)cc2)cc1 was read as LANA-H2B inh -1.8, Calb FLC 2, Beta apoptosis 5, ALR H2O2 inh -10, T cruzi repl 11, Beta2AR agonist -1 and Bfl-1 A1 inh 0.2.
